HPGD block: qHTS Assay for Inhibitors of HPGD (15-Hydroxyprostaglandin Dehydrogenase). AID 894, 2007. Potency, µM, inactives show at the top dose activity change, negative = inhibition, actives largely listed as inhibitors. 4.3% of 150,000 active. 15-hydroxyprostaglandin dehydrogenase [NAD(+)] (Homo sapiens), P15428. purified HPGD, NADH fluorescence kinetic, PGE2 substrate; active = well fitted inhibition curve with a large enough effect (not every such curve was filed as active); inconclusive = small, poorly fitted or top-dose-only effect, or another doubt; inactive = no such curve, though single readings can be large or run the other way;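 note: top concentration of the series not given in the record; plate controls included wells without enzyme; inactives centre near -10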
Target sequence (P15428 whole entry, looked up): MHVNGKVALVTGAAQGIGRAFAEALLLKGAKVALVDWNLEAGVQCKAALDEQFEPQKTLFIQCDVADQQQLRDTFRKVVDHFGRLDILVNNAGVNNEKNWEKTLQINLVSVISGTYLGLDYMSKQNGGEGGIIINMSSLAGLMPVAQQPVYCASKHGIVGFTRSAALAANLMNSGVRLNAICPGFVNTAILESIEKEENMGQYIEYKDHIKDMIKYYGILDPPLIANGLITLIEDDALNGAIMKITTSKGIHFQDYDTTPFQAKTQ
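NADH formation kinetics: reaction with 30 uM PGE2 and 1 mM NAD+ (final), 20 nM enzyme, Tris-HCl pH 8 with Tween 20, after 15 min compound preincubation at room temperature. Fluorescence change, last versus first of five reads.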
Starred values were filed as active, the others as inactive; u = inconclusive. % is set by controls: 0 for no effect and ±100 for the full control effect; potency is the fitted concentration of half-maximal effect. This is a subset; the hit share may differ from the screen's.

| HPGD block | SMILES |
| --- | --- |
| 0.5% | O=C1C2C3c4ccccc4C(Br)(c4ccccc43)C2C(=O)N1c1ccccc1O (configuration not stated) |
| -6.9% | Cc1c(Cl)cccc1NC(=S)NCCCN(C)C |
| -15.3% | O=C(O)Cc1n[nH]c(=O)c2ccccc12 |
| u | COC(=O)C1=C(C)N(Cc2ccc(C)cc2)C(=O)/C1=C\c1ccc(O)c(OC)c1 |
| 2.9% | CC(C)CNC(=O)c1cc([N+](=O)[O-])ccc1N1CCOCC1 |
| u | CC(C)(C)c1nc[nH]c(=O)c1Br |
| -7.0% | CCCC1=NN(c2ccc([N+](=O)[O-])cc2)C(=O)/C1=C\N(C)C |
| u | CCCn1c(=O)c2c(C(F)(F)F)cc(-c3cccs3)nc2n(CCC)c1=O |
| -1.9% | CC(C)(C)NC(=O)C(=O)NNC(=O)c1ccc(C(C)(C)C)cc1 |
| -0.6% | Cc1ccc(OCCn2cc(Br)c(=O)[nH]c2=O)cc1 |
| u | Cc1cccc(NC(=O)Cc2ccc(F)cc2)c1 |
| -2.0% | CC1=CCC2COC(c3ccc[n+](Cc4ccccc4)c3)C1C2 (configuration not stated) |
| u | Cc1cccc(-n2c(=O)[nH]c3c(C(N)=O)nc(-c4ccccc4Cl)nc32)c1 |
| -3.9% | CC(C)(C)C(=O)Nc1nnc(SCc2ccc(F)cc2)s1 |
| -18.4% | CCOC(=O)Cn1nnc2c(sc3nc4c(c(-c5ccccc5)c32)CCC4)c1=O |

Molecules from the list above with a thiophene ring, fused or not, in the order listed:
| HPGD block | SMILES |
| --- | --- |
| u | CCCn1c(=O)c2c(C(F)(F)F)cc(-c3cccs3)nc2n(CCC)c1=O |
| -18.4% | CCOC(=O)Cn1nnc2c(sc3nc4c(c(-c5ccccc5)c32)CCC4)c1=O |

An excerpt from above in order of length of the SMILES, largest number first:
| HPGD block | SMILES |
| --- | --- |
| u | COC(=O)C1=C(C)N(Cc2ccc(C)cc2)C(=O)/C1=C\c1ccc(O)c(OC)c1 |
| -7.0% | CCCC1=NN(c2ccc([N+](=O)[O-])cc2)C(=O)/C1=C\N(C)C |
| -1.9% | CC(C)(C)NC(=O)C(=O)NNC(=O)c1ccc(C(C)(C)C)cc1 |
| 2.9% | CC(C)CNC(=O)c1cc([N+](=O)[O-])ccc1N1CCOCC1 |
| -2.0% | CC1=CCC2COC(c3ccc[n+](Cc4ccccc4)c3)C1C2 (configuration not stated) |
| -0.6% | Cc1ccc(OCCn2cc(Br)c(=O)[nH]c2=O)cc1 |
| -6.9% | Cc1c(Cl)cccc1NC(=S)NCCCN(C)C |
